B2AR ag – beta2AR agonists driving receptor internalization, primary screen, cell-based, FAP fluorogen, flow cytometry; response, % (no concentration beside the values); Am2.2-beta2AR cells; reference of the scale not given here; Beta-2 adrenergic receptor (Homo sapiens), P07550; AID 504454, 2011; hit rate 0.43% among 340,000;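 active = response above a set limit, near 3 SD of response in nonfluorescent compounds, cut at about 42% in these data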;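 note: stock transfer was 100 nL into about 11 µL; a reference agonist was the positive control; negative values mostly stem from fluorescent compounds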
Calb FLC – C. albicans growth inhibition with fluconazole, primary screen, CaCi-2 strain, Alamar Blue fluorescence | AID 1979, 2009 | growth inhibition, % (concentration not given with the values) | hit rate 0.57% among 300,000 | C. albicans CaCi-2 (fluconazole-resistant clinical isolate) + fluconazole, 48 h;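 active = most replicates above 75%; inconclusive = exactly half above 75%; inactive = most below 75%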;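 note: all wells also contain fluconazole at 8 µg/ml as a sub-toxic cotreatment; 0% = median of DMSO wells and 100% = median of geldanamycin control wells; wells of about 8 µL received 7.5 nL stock; the first replicate is given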
HNF4A DNA FP – change in binding of human HNF4A to DNA, primary screen, biochemical, fluorescence polarization, FITC-DNA; 1 h; activity change, % at 10 µM; hit rate 0.3% among 360,000; in the data active = activity change above about 30%, passing the limit was not always enough;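 note: controls were the assay level and a saturating level of protein; the project sought stronger binding though the title names inhibitors; some compounds called inactive have numbers as strong as hits; positive values seem to mean higher polarization but the record does not say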
LANA-H2A inh – blockers of LANA interaction with H2A/H2B – biochemical, FP readout, HTS, primary screen | hit rate 0.6% among 320,000 | cell-free LANA-H2A/H2B peptide, fluorescence polarization | inhibition, % (test concentration not listed); in the data active = inhibition mostly above about 10%, no sharp cut-off; inactive = mostly below about 6.7%;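 note: stock transfer was 7.5 nL into about 10 µL; 0% = median of vehicle wells and 100% = median of positive control wells; one replicate is shown; the record names a cut of 25% in any replicate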
Target sequence (Q9QR71 whole entry, looked up): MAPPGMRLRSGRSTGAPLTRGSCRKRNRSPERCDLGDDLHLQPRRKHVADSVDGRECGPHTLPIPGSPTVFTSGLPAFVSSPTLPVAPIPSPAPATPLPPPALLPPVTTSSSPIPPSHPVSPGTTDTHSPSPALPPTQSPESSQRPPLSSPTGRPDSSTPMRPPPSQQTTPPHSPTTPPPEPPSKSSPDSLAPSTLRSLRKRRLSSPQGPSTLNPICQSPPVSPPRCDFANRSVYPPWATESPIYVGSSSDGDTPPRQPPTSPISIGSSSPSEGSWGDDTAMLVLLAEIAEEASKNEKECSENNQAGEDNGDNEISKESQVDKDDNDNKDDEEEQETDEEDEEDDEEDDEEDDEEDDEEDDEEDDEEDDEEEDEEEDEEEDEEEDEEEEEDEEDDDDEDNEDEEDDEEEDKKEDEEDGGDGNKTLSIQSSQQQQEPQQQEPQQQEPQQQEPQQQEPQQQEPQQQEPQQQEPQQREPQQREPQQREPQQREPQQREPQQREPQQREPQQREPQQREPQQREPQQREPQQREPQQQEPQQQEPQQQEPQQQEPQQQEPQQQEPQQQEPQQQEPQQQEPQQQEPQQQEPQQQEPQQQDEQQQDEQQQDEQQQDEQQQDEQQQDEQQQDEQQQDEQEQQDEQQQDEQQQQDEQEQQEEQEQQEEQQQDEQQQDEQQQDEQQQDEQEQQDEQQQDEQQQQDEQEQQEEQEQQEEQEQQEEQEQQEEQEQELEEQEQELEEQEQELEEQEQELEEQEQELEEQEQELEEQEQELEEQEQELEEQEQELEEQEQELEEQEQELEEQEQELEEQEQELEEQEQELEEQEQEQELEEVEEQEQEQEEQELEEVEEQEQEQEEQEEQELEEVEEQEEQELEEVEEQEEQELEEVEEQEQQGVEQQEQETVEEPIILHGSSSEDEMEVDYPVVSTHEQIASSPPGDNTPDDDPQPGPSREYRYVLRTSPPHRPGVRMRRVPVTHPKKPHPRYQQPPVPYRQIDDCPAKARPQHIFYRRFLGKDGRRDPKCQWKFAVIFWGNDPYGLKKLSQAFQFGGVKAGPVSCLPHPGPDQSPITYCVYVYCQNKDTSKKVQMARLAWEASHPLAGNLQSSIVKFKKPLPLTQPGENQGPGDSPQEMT
RanGTP-Imp inh – inhibitors of RanGTP-importin-beta interaction, primary screen, biochemical, FRET, CFP-Ran, YFP-importin-beta, homogeneous; hit rate 1.1% among 300,000; inhibition, % (no concentration beside the values); cell-free CFP-Ran/YFP-importin-beta FRET ratio; Ran GTPase (GTP-bound) - importin-beta complex;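 active = most replicates above 15%; inconclusive = exactly half above 15%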;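 note: 0% = DMSO wells and 100% = Ran loaded with GDP instead of GTP; wells of about 40 µL received 100 nL stock; the first replicate is given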
ALR inh – inhibitors of human ALR sulfhydryl oxidase, primary screen, biochemical, H2O2 detection, HRP-luminol luminescence, single point. FAD-linked sulfhydryl oxidase ALR (Homo sapiens), P55789. purified ALR, DTT oxidation. inhibition, % (test concentration not listed). hit rate 3.8% among 290,000. AID 485317, 2010;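 active = mean and each replicate at 75% or more; inconclusive = only one of the two met; inactive = neither met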;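 note: stock transfer was 7.5 nL into about 7.5 µL; 0% = neutral wells and 100% = wells with inactivated enzyme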
Vif A3G – inhibitors of Vif binding to APOBEC3G peptide, primary screen, biochemical, TR-FRET, GST-Vif 1-94, biotin-A3G peptide, dose response retest (AID 1117319). hit rate 0.57% among 260,000. one-dose inhibition, %; IC50 in µM for titrated hits. TR-FRET GST-Vif / biotin-A3G peptide binding; higher % means a stronger effect; test concentration not given here; strong numbers were not always called active. Virion infectivity factor (Human immunodeficiency virus type 1 group M subtype B (isolate …;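 active = above the screen mean plus three standard deviations and confirmed in dose response; inconclusive = results disagree or hit not tested in dose response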;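 note: Vif residues 1-94 fused to GST binding biotinylated APOBEC3G peptide 110-148; 0% = full assay without inhibitor and 100% = GST in place of GST-Vif; retest series ran down from 100 µM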
The depositor's hits bear a star; u = inconclusive; x = no result given.

SMILES	B2AR ag	Calb FLC	HNF4A DNA FP	LANA-H2A inh	RanGTP-Imp inh	ALR inh	Vif A3G
COc1cccc(C(=O)NC(=S)Nc2ccc3oc(=O)ccc3c2)c1	5	22	2.5	14	1.1	2	x
O=C(c1ccc(Cl)c(S(=O)(=O)N2CCOCC2)c1)N1CCCC1	-2	-15	1.8	1.7	-0.3	5	x
O=NN1CCN(c2ccncc2S(=O)(=O)N2CCCCC2)CC1	-6	-1	0.1	-5.9	5.8	-18	-7%
Cc1ccc(CSCC(=O)N(C)CC(=O)Nc2ccc(C)cc2)cc1	0	-11	1.0	-1.9	2.3	0	-1%
O=C(/C=C/c1ccco1)Oc1cccc2cccnc12	-2	-1	-5.8	-5.5	2.9	4	x
O=c1[nH]c(=S)[nH]c(O)c1N=Nc1ccc(-c2ccccc2)cc1[N+](=O)[O-]	x	9	x	x	-18	x	-9%
Cc1cccc(-n2cnc(C(=O)N3CCN(C)CC3)c2)n1	-6	12	2.4	0.4	1.2	-10	-2%
O=C(NCc1ccc2c(c1)OCO2)c1cc(-c2ccccc2)on1	5	x	-1.2	0.3	x	-7	-4%
COC(=O)c1ccc(-n2nnnc2SCc2nn[nH]n2)cc1	2	2	3.2	0.6	-0.4	-16	-6%
CCC(C(=O)NC(C)(C)C)N(C(=O)Cn1nnc(-c2cccs2)n1)c1cnc2ccccc2c1 (stereo not given)	-11	-5	-0.9	1.5	4.5	-14	3%
Cc1ccc(S(=O)(=O)N/N=C/c2cccc3c2OCCO3)cc1	-8	-1	-3.0	-0.5	3.4	0	-3%
Cc1cccc(C)c1NC(=O)CSc1nnc([C@@H]2CCCN2C(=O)OC(C)(C)C)o1	1	0	-1.4	2.5	-1.1	-17	1%
Cc1ccc(C(=O)N2CCN(Cc3ccccc3)CC2)cc1S(=O)(=O)N1CCOCC1	18	x	-0.3	x	x	x	-4%
Cc1nn(-c2ccc(Cl)cc2)c(Cl)c1/C=N/NC(=O)c1ccc(NS(=O)(=O)c2cccs2)cc1	13	5	-3.8	-1.5	0.1	-5	x
COc1ccc(-c2cc3nc4n(c(=O)c3s2)CCC4)cc1	1	u	4.2	-2.0	-6.7	-22	-2%

Quoted at random: five compounds from above.
SMILES	B2AR ag	Calb FLC	HNF4A DNA FP	LANA-H2A inh	RanGTP-Imp inh	ALR inh	Vif A3G
O=C(/C=C/c1ccco1)Oc1cccc2cccnc12	-2	-1	-5.8	-5.5	2.9	4	x
COc1cccc(C(=O)NC(=S)Nc2ccc3oc(=O)ccc3c2)c1	5	22	2.5	14	1.1	2	x
Cc1ccc(S(=O)(=O)N/N=C/c2cccc3c2OCCO3)cc1	-8	-1	-3.0	-0.5	3.4	0	-3%
Cc1ccc(CSCC(=O)N(C)CC(=O)Nc2ccc(C)cc2)cc1	0	-11	1.0	-1.9	2.3	0	-1%
COc1ccc(-c2cc3nc4n(c(=O)c3s2)CCC4)cc1	1	u	4.2	-2.0	-6.7	-22	-2%

Next section
SMILES	B2AR ag	Calb FLC	HNF4A DNA FP	LANA-H2A inh	RanGTP-Imp inh	ALR inh	Vif A3G
Oc1ccc(/C=N/n2cc(-c3ccccc3)[nH]c2=S)cc1	-9	-5	0.3	-12	-5.2	99*	3%
CC(CS(=O)(=O)c1cccc2cccnc12)N1CCCCC1 (stereo not given)	6	-7	-3.6	3.7	4.8	-2	22%
CCOC(=O)/C(Sc1nc(-c2ccccc2)cc(-c2ccccc2)c1C#N)=C(\C)O	7	11	3.6	0.9	-0.3	3	x
CCc1ccc(C(=O)NNC(=O)CN2C(=O)NC(CC)(c3ccccc3)C2=O)cc1 (stereo not given)	-5	-3	2.1	-1.0	0.1	-1	3%
CCOC(=O)C(CC)n1nc(C)n2c(cc3occc32)c1=O (stereo not given)	1	0	0.5	-1.0	-3.1	-2	11%
COc1ccc(NS(=O)(=O)c2cccc(C(=O)NNC(=O)c3ccc(NC(C)=O)cc3)c2)cc1	-3	3	-1.0	-0.5	1.7	x	x
CCn1c(NCc2ccco2)nc2ccccc21	-3	53	-3.8	0.0	3.4	51	18%
Cc1ccc(-c2cc(C(=O)N3CCOCC3)c3ccccc3n2)cc1	-4	-6	-5.9	-2.2	2.5	-9	10%
CC(C)=CC(=O)OCC(=O)NC(=O)NC(C)(C)C	4	x	-2.6	-5.1	x	2	6%
CCOc1ccc(NS(=O)(=O)c2ccc(-c3ccc(=O)[nH]n3)o2)cc1	6	-1	2.0	3.7	5.8	-4	x
O=C1OC(c2cccc([N+](=O)[O-])c2)C2(CCCC2)C(=O)C12CCCCC2 (stereo not given)	0	3	2.1	-4.3	2.3	-2	x
CC(C)(C)C(=O)Nc1cccc(S(=O)(=O)NC2=NCCC2)c1	-19	3	0.1	-1.8	2.3	-21	2%
CCOc1cc(C(=O)Nc2cc(F)ccc2C)ccc1OCC(=O)N1CCOCC1	8	x	0.7	4.4	x	x	x
CCCC(=O)Nc1ccc(-c2csc(NNC(C)=O)n2)cc1	-6	5	0.7	-0.3	2.7	99*	x
CC(C)C(C(=O)Nc1ccc2c(c1)OCCO2)N1C(=O)c2ccccc2C1=O (stereo not given)	3	5	9.2	-5.3	0.8	-10	-1%
CCCSc1nc(N2CCOCC2)c2c(c1C#N)CC(C)(C)SC2	5	1	1.1	-0.8	1.8	x	24%
CCOC(=O)C1=CN(Cc2ccccc2)CCC1=O	-1	x	3.5	x	x	x	6%
COc1ccc(OCc2nnc(SCC(=O)N3CCCc4ccccc43)n2-c2ccc(C)cc2)cc1	10	7	0.0	-5.0	-3.1	-8	-2%
CC(c1ccccc1)N1C(=O)CC(Sc2ncccc2C(=O)O)C1=O (stereo not given)	16	9	-2.4	-0.7	6.7	0	-9%
O=C(CSCc1ccccc1)Nc1ccc(Cl)cn1	3	-15	-0.3	2.0	3.8	47	-4%
N#CC1=C(N)NC(SCC(=O)Nc2ccc(Br)cc2)=C(C#N)C12CCCCC2	3	u	2.8	1.1	1.3	97*	4%
O=C(C1CCCN(S(=O)(=O)c2ccc(F)cc2)C1)N(Cc1cccs1)C1CC1 (stereo not given)	2	-4	-4.4	4.1	-1.6	-2	-4%
COc1ccc(/C(N)=N/OC(=O)c2ccc(OC)c([N+](=O)[O-])c2)cc1OC	16	6	0.5	-0.7	2.8	-6	-14%
COc1ccc(C2=NN(C(C)=O)C(c3ccccc3)C2)cc1 (stereo not given)	2	-7	0.3	3.6	-0.7	-7	x
COC(=O)c1ccccc1NC(=O)CCCN1C(=O)C(c2ccccc2)Oc2cccnc21 (stereo not given)	3	3	2.6	5.1	1.4	-8	1%
OC(CN1CCOCC1)C12CC3CC(CC(C3)C1)C2 (stereo not given)	-1	-6	-0.9	-1.2	-3.1	-3	19%
Cc1ccc(N=C(N)N=C(N)N)cc1	-1	-5	0.8	1.2	0.7	-5	16%
CCn1cc(C(=O)NCCCN(CC(C)C)CC(C)C)c(=O)c2cc(S(=O)(=O)N3CCOCC3)ccc21	2	-2	0.9	-2.5	4.0	-2	2%
CC(C)Cc1nnc(NS(=O)(=O)c2ccc(Cl)cc2)s1	-5	3	4.3	-2.0	0.6	40	0%
CCN1CCN(CCOc2ccc(Br)cc2C)CC1	3	2	0.6	0.3	1.3	-3	x
Cc1ccc(S(=O)(=O)NCCC2(C(C)C)CCOC(C)(C)C2)cc1 (stereo not given)	3	4	-1.9	3.2	5.0	x	15%
CC(C(=O)O)c1ccc(C(=O)c2ccccc2)s1 (stereo not given)	1	x	1.6	-0.1	x	-3	x
CCOc1ccccc1NC(=O)COC(=O)/C=C/c1ccc(OC)c(OC)c1	0	40	-0.9	5.7	0.8	-1	5%
O=C(O)c1nsc(Cl)c1Cl	0	0	1.1	2.3	2.6	-1	3%
CC(=O)Nc1ccc(S(=O)(=O)Oc2ccc(/C=N/N=C3/NC(=O)C(CC(=O)O)S3)cc2)cc1 (stereo not given)	-7	-2	-2.5	-4.4	1.9	-5	3%
Cn1cnc([N+](=O)[O-])c1C(=O)Nc1cccc([N+](=O)[O-])c1	-1	-16	-1.4	1.0	-4.3	-11	0%
O=C(NCCN1CCNC1=O)C1CCC(=O)N(Cc2cccc(C(F)(F)F)c2)C1 (stereo not given)	-4	13	0.5	2.6	1.5	-25	x
COc1ccc(/C=C(\C#N)C(=O)NCC(c2ccc(F)cc2)N2CCOCC2)cc1 (stereo not given)	-2	2	6.3	-1.7	-0.6	-24	3%
COC(=O)c1cc(OC)c(OC)cc1NC(=O)CSc1nnnn1Cc1ccccc1	5	-8	1.9	0.1	4.2	-14	2%
O=c1ccn(CCCBr)c(=O)[nH]1	12	2	5.3	1.4	3.7	-3	31%
O=C(CSCc1ccc(Cl)cc1)Nc1ccccc1O	4	1	-2.8	-4.3	6.3	-9	4%
COc1cc(CO)cc(Br)c1OCC(=O)Nc1cccc2ccccc12	-2	0	1.5	-6.0	5.9	-15	4%
COc1cccc2cc(C(=O)N3CCN(c4ccccc4F)CC3)c(=O)oc12	3	5	1.0	-1.3	3.7	0	-2%
O=C(Nc1ccc(S(=O)(=O)Nc2nccs2)cc1)c1cc(-c2ccccc2Cl)nc2ccccc12	-1	2	-0.2	-1.4	-7.9	-3	5%
C/C(=C\c1ccccc1F)C1Nc2cccc3cccc(c23)N1	0	x	-2.9	-6.4	x	-18	x
CC1CC(C)CN(CCOc2cccc3ccccc23)C1 (stereo not given)	-6	-5	-1.6	-1.6	-4.5	-10	-3%
S=C(Nc1ccccc1)Nc1ccc(OCc2ccc(Cl)cc2Cl)cc1	10	-4	1.9	4.7	u	1	19%
COc1cc(C(=O)Nc2cccc(-c3nc4ncccc4o3)c2C)cc(OC)c1OC	-6	-7	2.4	1.7	-3.9	2	>100µM*
COc1ccccc1CNc1ccc2c(c1)CCC2	-85	-4	14	0.8	-0.2	x	-1%
COc1ccc(/C(C)=N/NC(=S)NCCc2ccccc2)cc1	-3	-34	-2.8	1.6	5.0	24	-13%
CCN1CCN(c2ccc(NC(=O)c3ccco3)cc2)CC1	-10	21	4.5	-0.8	4.4	4	-11%
O=c1oc2ccc3ccccc3c2cc1-c1nnc(-c2ccccc2)o1	17	-1	2.9	-3.2	122*	-11	3%
CN(C)CCCO[C@@H]1[C@H]2OC(C)(C)O[C@H]2O[C@@H]1[C@H](O)CO	-1	x	-2.0	-3.0	x	-3	x
CC1CN(S(=O)(=O)c2ccc(C(=O)N3c4ccccc4CC3C)cc2)CC(C)O1 (stereo not given)	-3	x	-0.8	5.4	x	8	x
COc1ccc2c(c1)c(=O)c(C(=O)c1ccccc1)cn2Cc1ccccc1	-35	15	4.9	-5.3	0.2	-13	31%
COc1cccc(CN2CC(C(=O)NCc3cccc(N4CCCC4)c3)CCC2=O)c1 (stereo not given)	-6	-3	1.4	-2.0	-0.5	1	x
COc1cc(C(=O)N2CCCN(c3nc4cc(C)ccc4cc3C#N)CC2)cc(OC)c1OC	x	13	x	-8.0	52*	x	x
CC1CCCCN1S(=O)(=O)c1ccc(NC(=O)c2ccco2)cc1 (stereo not given)	-11	-32	6.3	-2.3	-1.2	-4	0%
Cc1cccc(C(=O)OCC(=O)Nc2c(C)n(C)n(-c3ccccc3)c2=O)c1	-1	x	2.5	4.4	x	x	-5%
CCN(CC)CCNC(=O)c1cc(-c2ccco2)nc2ccccc12	1	4	-2.5	-0.7	6.9	-8	16%
Cc1ccc(C)c(NC(=O)CN(C)C(=O)Cc2ccc(Cl)cc2Cl)c1	-7	-13	0.1	-1.5	-0.4	-2	x
